# HSV replic up: increases HSV replication in cells. AID 1956. actives 0.005% (n = 220,000). HSV replication augmentation in cells, fold increase. maximum fold increase;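 active = peak rise of 1.5-fold or more in the series; tested in PC3 cells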;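 also: first round at 10 µM; read as green reporter fluorescence; hits show the peak of a series up to 25 µM; 1 = signal of infected wells without compound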
# RGS16-Gao: RGS16-Galphao interaction regulator (human); O15492+P09471; bead-based flow cytometry RGS16-Galphao binding, fluorescence; actives lie on both sides; binding response (% of control), % at 10 µM; actives 0.38% (n = 220,000); AID 1441;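 active = below 25% or above 175%, edge rows of some plates excepted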;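 also: Galphao activated by GDP with aluminum fluoride before binding; 100% = wells without compound and 0% = beads without RGS; some results beyond the cut were filed as inactive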
# Target sequence (O15492 whole entry, looked up): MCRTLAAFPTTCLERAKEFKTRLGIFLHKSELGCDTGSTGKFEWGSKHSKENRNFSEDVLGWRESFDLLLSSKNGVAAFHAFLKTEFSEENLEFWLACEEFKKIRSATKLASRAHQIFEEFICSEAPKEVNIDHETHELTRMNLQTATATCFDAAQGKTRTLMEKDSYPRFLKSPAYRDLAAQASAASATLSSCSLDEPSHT
# Target sequence (P09471 whole entry, looked up): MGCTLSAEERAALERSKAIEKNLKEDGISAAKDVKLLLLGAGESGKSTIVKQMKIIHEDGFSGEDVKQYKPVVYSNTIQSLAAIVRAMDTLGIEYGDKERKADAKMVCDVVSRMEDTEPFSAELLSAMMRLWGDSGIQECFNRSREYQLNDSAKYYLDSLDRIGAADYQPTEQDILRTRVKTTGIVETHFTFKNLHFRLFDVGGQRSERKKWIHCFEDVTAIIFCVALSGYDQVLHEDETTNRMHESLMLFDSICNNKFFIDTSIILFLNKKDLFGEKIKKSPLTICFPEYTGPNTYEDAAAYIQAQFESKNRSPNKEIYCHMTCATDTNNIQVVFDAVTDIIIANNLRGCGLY
# PKD1 inh: PKD1 (human) kinase inhibition | actives 0.056% (n = 200,000) | inhibition, %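 (about 10 µM by stock and volumes)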 | Q15139 | PKD1 kinase fluorescence polarization assay;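 active = inhibition of 50% or more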;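 also: controls were vehicle for no effect and a reference inhibitor for full effect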
# INS promoter inh: TRM-6 insulin promoter activity inhibition | TRM-6 cells (human fetal islet line), insulin promoter-eGFP reporter, imaging; reporter expression induced with tamoxifen | inhibition, % at 2 µM | actives 0.9% (n = 130,000) | AID 1273;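 active = inhibition above the mean plus 3 SD, with well images judged a real hit on visual review, cut at about 60% in these data, passing the limit was not always enough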
# GALR2 ag: agonists of human galanin receptor 2 (GALR2). O43603. GALR2-expressing cells, agonist activation read-out. actives 0.48% (n = 140,000). activation, %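 (tested at 5 µM)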. AID 803;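 active = above mean plus 3 SD of all compounds, about 5% in these data, not always enough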;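 also: 0% = vehicle buffer wells and 100% = reference agonist at full effect; tested in CHO reporter cells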
# Target sequence (O43603 whole entry, looked up): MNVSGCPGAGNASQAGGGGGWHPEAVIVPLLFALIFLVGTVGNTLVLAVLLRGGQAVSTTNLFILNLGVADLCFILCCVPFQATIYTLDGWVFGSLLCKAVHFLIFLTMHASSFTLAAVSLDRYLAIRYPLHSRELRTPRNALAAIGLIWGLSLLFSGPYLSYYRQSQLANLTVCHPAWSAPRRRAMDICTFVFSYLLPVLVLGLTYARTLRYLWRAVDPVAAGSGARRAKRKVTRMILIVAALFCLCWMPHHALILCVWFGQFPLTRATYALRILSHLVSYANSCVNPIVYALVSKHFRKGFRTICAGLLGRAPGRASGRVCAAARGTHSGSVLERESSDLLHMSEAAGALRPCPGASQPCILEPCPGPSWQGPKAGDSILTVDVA
# INS promoter inh cell count: recorded beside INS promoter inh, whose call it bears; normalized cell count, %; measured here: cell count, toxicity; reference of the scale not given here;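 cells exposed to compound for 48 h; stained nuclei by imaging scaled within each plate; lower means fewer cells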
# HSV replic up primary fold: further read-out of HSV replic up, marked with its call; fold increase; compound at 10 µM; measured here: primary screen fold increase 10 uM; tested in PC3 cells;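 GFP signal in the first replicate; 1 = infected wells without compound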
# * = called active by the depositor; i = inactive; / = not tested or not shown. Hits appear at their usual frequency, and some 1.3% of all compounds hit somewhere here.
molecule | HSV replic up | HSV replic up primary fold | RGS16-Gao | PKD1 inh | INS promoter inh | INS promoter inh cell count | GALR2 ag
Cc1ccc(-c2c3c(=O)n(C)c(=O)n(C)c3c3nnc4ccccc4n23)cc1 | / | / | / | -5 | -19 | 113 | -0.1
CC1CC(CC(=O)NNc2nc(-c3ccccc3)cs2)C(=O)O1 (stereo not drawn) | i | 0.88 | 121 | -1 | 18 | 97 | /
CCn1nc(C)c(CN2CCN(Cc3ccsc3)C(CCO)C2)c1C (stereo not drawn) | i | 0.99 | 104 | -4 | / | / | /
COc1cc(NC(=O)c2cc(C(C)C)on2)cc(OC)c1OC | i | 0.85 | 100 | -15 | / | / | -2.4
NS(=O)(=O)c1ccc(CCNC(=O)/C=C/c2ccccc2[N+](=O)[O-])cc1 | i | 0.88 | 101 | 1 | 53 | 74 | /
CC1C2CC(C/C2=N/NC(=O)c2cccs2)C1(C)C (stereo not drawn) | i | 0.89 | 101 | 5 | 17 | 73 | /
Cc1nc(N)sc1-c1csc(Nc2ncccn2)n1 | i | 1.1 | 100 | 7 | / | / | /
O=C(/C=C/Nc1cccc([N+](=O)[O-])c1)c1cccs1 | i | 0.83 | 86 | -6 | 0 | 178 | -1.9
COc1ccccc1NC(=O)Cn1c(=O)n(CCc2c[nH]c3ccccc23)c(=O)c2cccnc21 | / | / | 92 | -5 | 17 | 88 | -1.1
N/C(=N\OC(=O)Cc1cccc2ccccc12)c1ccccn1 | i | 0.99 | 105 | 1 | -46 | 78 | -2.6
COc1ccccc1/C=N/NC(=O)c1ccccc1NS(=O)(=O)c1ccc(C)cc1 | i | 0.64 | 108 | -6 | -100 | 95 | -1.2
O=C(/C=C/c1ccco1)NC1CCCC1 | i | 0.93 | 100 | -4 | 57 | 150 | /
Cc1ccccc1C1=N/C(=C/c2cccnc2)C(=O)O1 | i | 0.93 | 104 | -8 | -7 | 99 | /
CS(=O)(=O)N1CCN(c2ccc(NC(=S)NC(=O)c3ccc4c(c3)OCO4)cc2)CC1 | i | 0.98 | 82 | -6 | / | / | /
C=CCSc1nnc(Cc2cc(=O)[nH]c(=O)[nH]2)n1-c1cc(C)ccc1C | i | 0.95 | 100 | -11 | / | / | -2.8
O=C(Nc1ccccc1N1CCOCC1)C1CCN(S(=O)(=O)c2ccc(Cl)cc2)CC1 | i | 0.94 | 100 | / | / | / | /
COC(=O)c1ccc(/C=N/NC(=O)c2cccc(F)c2)cc1 | i | 0.89 | 145 | -6 | 20 | 133 | -1.9
CCN(CC)C(=S)SCC(=O)Nc1cccc(C(F)(F)F)c1 | i | 1 | / | -8 | 32 | 129 | -0.4
N#CCCN(C(=O)CSc1nc2nc(-c3cccs3)cc(C(F)(F)F)c2c(=O)[nH]1)c1ccccc1 | i | 1 | 102 | / | / | / | /
O=C(COc1ccc(F)cc1)Nc1nccs1 | i | 0.73 | 102 | -4 | / | / | -2.2
CCOC(=O)C(NC(=O)Nc1ncccn1)(Oc1ccccc1)C(F)(F)F (stereo not drawn) | i | 0.94 | 92 | 5 | -190 | 148 | -2.2
CCOC(=O)c1nc(C)n(-c2ccc(Cl)cc2Cl)n1 | i | 0.92 | 97 | 1 | 12 | 114 | -3.6
O=C(Nc1ccccc1N1CCOCC1)c1ccc2c(c1)C(=O)N(Cc1ccncc1)C2=O | i | 0.9 | 98 | 2 | / | / | 1.9
COc1ccc(NC(=O)c2ccc([N+](=O)[O-])cc2[N+](=O)[O-])c(OC)c1 | i | 0.82 | 101 | -10 | -9 | 153 | /
Nn1c(COc2ccc(Cl)cc2)n[nH]c1=S | i | 1.1 | 98 | 7 | / | / | /
COc1ccccc1N(Cc1cc(=O)[nH]c2ccccc12)C(=O)c1ccc([N+](=O)[O-])cc1 | i | 0.89 | 103 | / | / | / | /
CCOC(=O)N1CCN(C(=O)CN(Cc2ccc(Cl)cc2)S(=O)(=O)c2ccc(C)cc2)CC1 | i | 1.1 | / | 1 | 11 | 51 | -3.0
Cn1c(N)c(C(=O)CCl)c(=O)n(C)c1=O | i | 0.8 | 103 | 0 | 24 | 105 | -2.6
CN1/C(=C\C(=O)COC(=O)c2ccco2)C(C)(C)c2ccccc21 | i | 1.1 | 98 | 0 | / | / | /
COc1cc(C(=O)NCC(=O)N/N=C(/C)c2ccc3c(c2)CCCC3)cc(OC)c1OC | i | 1.1 | 101 | -4 | -78 | 110 | /
CCN(CC)CCN1C(=O)C(=O)/C(=C(/O)c2ccc(Cl)cc2)C1c1ccncc1 (stereo not drawn) | i | 1.2 | 149 | -1 | / | / | 0.1
N#C/C(=C\c1cn(Cc2cccc(F)c2)c2ccccc12)C(=O)NCc1ccco1 | i | 0.85 | 113 | 1 | -24 | 116 | -1.2
COc1cccc(/C=N/n2c(-c3ccco3)nc3ccccc3c2=O)c1OC | i | 1.1 | 114 | 12 | -59 | 123 | -0.5
COCCCn1c(SCc2nc3ccccc3c(=O)[nH]2)nc2ccccc2c1=O | i | 0.93 | 101 | -4 | 4 | 129 | 0.8
CCN(CC(=O)NC(=O)NC1CCCCC1)Cc1nc2ccccc2c(=O)[nH]1 | i | 0.84 | 102 | -7 | -3 | 113 | -0.7
O=C(CNC(=O)c1cccs1)NCCN1CCN(Cc2ccccc2)CC1 | i | 0.84 | 143 | -1 | / | / | -3.4
NC(=O)NC(=O)COC(=O)c1ccc(OC(F)(F)F)cc1 | i | 1 | 106 | 3 | / | / | /
C=CCn1cc(C(=O)NCc2ccco2)c(=O)c2cc(S(=O)(=O)N3CCCCCC3)ccc21 | i | 0.8 | 90 | -6 | / | / | 0.7
Cc1ccc(Cl)cc1-c1ccc(C=Nc2ccc(N3CCOCC3)cc2)o1 | i | 0.9 | 78 | -11 | -24 | 139 | 0.6
CCC/C(=N/NC(=O)c1cccc(Cl)c1)c1ccccc1 | i | 0.96 | 104 | -3 | -33 | 97 | -0.1

# Record cards, from the list above. Order of screens: HSV replic up	HSV replic up primary fold	RGS16-Gao	PKD1 inh	INS promoter inh	INS promoter inh cell count	GALR2 ag
# `O=C(COc1ccc(F)cc1)Nc1nccs1` is listed with i	0.73	102	-4	/	/	-2.2
# `CCOC(=O)c1nc(C)n(-c2ccc(Cl)cc2Cl)n1` is listed with i	0.92	97	1	12	114	-3.6
# `N#CCCN(C(=O)CSc1nc2nc(-c3cccs3)cc(C(F)(F)F)c2c(=O)[nH]1)c1ccccc1` is listed with i	1	102	/	/	/	/
# `Cc1nc(N)sc1-c1csc(Nc2ncccn2)n1` is listed with i	1.1	100	7	/	/	/
# `O=C(/C=C/Nc1cccc([N+](=O)[O-])c1)c1cccs1` is listed with i	0.83	86	-6	0	178	-1.9

# Additional compounds.
molecule | HSV replic up | HSV replic up primary fold | RGS16-Gao | PKD1 inh | INS promoter inh | INS promoter inh cell count | GALR2 ag
COc1cccc(/C=N/n2c(-c3cccs3)n[nH]c2=S)c1 | i | 0.93 | 92 | -5 | -34 | 98 | 0.2
Cc1nc(SCC#N)c2c3c(sc2n1)CCC3 | i | 1 | 101 | 2 | 31 | 90 | -1.5
COc1ccc(C)cc1S(=O)(=O)N1CCN(S(=O)(=O)c2cc(C)ccc2OC)C(C)C1 (stereo not drawn) | i | 0.94 | 98 | -6 | / | / | -2.5
S=C1SCN(CCN2CCOCC2)CN1Cc1ccccc1 | i | 1.1 | 99 | -9 | -30 | 85 | -1.4
CCCc1cc(-n2cnc3ccccc32)n2c(nc3ccccc32)c1C#N | i | 1.1 | 102 | 0 | -76 | 145 | -2.6
Cc1nc(-c2cccc(NS(=O)(=O)c3ccccc3)c2)cs1 | i | 1 | 38 | -2 | 11 | 107 | -1.1
N=C1SCC(=O)N1c1ncc(Cc2cccc(Cl)c2)s1 | i | 0.88 | 93 | -3 | -408 | 56 | /
Cc1onc(-c2ccccc2Cl)c1C(=O)NCc1ccccn1 | i | 1.2 | 103 | -7 | / | / | -2.9
CCNC(=S)SCCOc1ccc(C)cc1 | i | 0.93 | 89 | 3 | -14 | 72 | -0.9
CCCN(CC1CC1)C(=O)COc1ccccc1C(=O)NCc1ccccc1 | i | 0.84 | 99 | 2 | 0 | 46 | -0.5
CC(C)c1ccc(C2NC(C(=O)O)CS2)cc1 (stereo not drawn) | i | 0.95 | 122 | -5 | 50 | 97 | -2.4
O=c1c2ccccc2ncn1Cc1ccccc1 | i | 1 | 100 | / | / | / | /
O=C(NCCCNc1ccc([N+](=O)[O-])cc1Cl)c1ccccc1F | i | 0.67 | 102 | 4 | 40 | 108 | /
Cc1cccc(NC(=S)NCCc2ccccc2)n1 | i | 0.94 | 103 | -2 | / | / | /
Cn1nccc1NS(=O)(=O)c1ccc(NC(=O)C(F)(F)F)cc1 | i | 0.92 | 115 | / | / | / | /
Cc1ccc(-c2nc3ncccc3o2)cc1NC(=O)c1cccs1 | i | 0.77 | 114 | 2 | 35 | 131 | /
CCC(C(=O)OCC(=O)Nc1ccc(C(=O)Nc2ccc(OC)cc2)cc1)c1ccccc1 (stereo not drawn) | i | 0.7 | 105 | -4 | 27 | 210 | 0.7
Cc1cc(C(=O)CN2C(=O)NC(c3ccccc3)(c3ccccc3)C2=O)c(C)n1Cc1ccco1 | i | 0.85 | 99 | -4 | / | / | -2.0
Cc1ccc(C)c(NC(=O)CCC(=O)N/N=C/c2ccc[nH]2)c1 | i | 0.6 | 97 | -10 | / | / | -1.4
COc1ccc(O)c(C(=O)c2cnn(-c3ccccn3)c2)c1 | i | 0.95 | 102 | -3 | / | / | /

# New compounds follow.
# The line under a structure holds: HSV replic up, HSV replic up primary fold, RGS16-Gao, PKD1 inh, INS promoter inh, INS promoter inh cell count, GALR2 ag
CN(C)CC1CCCCC1OC(=O)c1ccc(Cl)cc1Cl (stereo not drawn)
  i, 1, 108, 8, 40, 169, -1.3
C[C@H](NC(=O)Nc1ccccc1F)C(=O)O
  i, 0.73, 100, -3, -104, 55, 4.2
CC(C)CSc1nc2ccccc2n1CC(=O)O
  i, 1, 103, 3, 23, 138, /
CCc1n[nH]c2c1/C(=N\O)CC(C)(C)C2
  i, 1.1, 96, -9, /, /, -1.2
CCOC(=O)/C(C#N)=C1/C=CN(c2ccccc2)C=N1
  i, 0.98, 102, -10, -26, 94, -1.0
CCCCCn1c(=O)c(C(=O)OCC)c(Cl)c2ccccc21
  i, 0.96, 89, /, /, /, /
N#CC1=C(N)Oc2c(oc(CO)cc2=O)C12C(=O)Nc1ccc(Cl)cc12 (stereo not drawn)
  i, 1, 103, -3, /, /, -2.3
c1ccc(CN2CCN(c3nc(-c4ccccc4)nc4ccccc34)CC2)cc1
  /, /, 102, -8, -7, 102, -1.3
CCNC(=S)N(Cc1ccccc1)Cc1nc2ccccc2c(=O)[nH]1
  i, 1, 91, 0, -31, 49, -2.5
O=C(Nc1ccc(Cl)c(Cl)c1)N1CC=CCC1
  i, 1, 111, -11, -4, 90, -1.7
Cc1cc(C)cc(NC(=O)C2CCCN(c3nccc(C)n3)C2)c1 (stereo not drawn)
  i, 0.89, 100, 2, 4, 49, -0.6
Cc1ccccc1N1CCN(C(=O)c2ccccc2NC(=O)/C=C\C(=O)O)CC1
  i, 0.95, 105, 3, 11, 102, -1.8
CC(C)Sc1nc(N2CCCC2)c2c(c1C#N)CC(C)(C)OC2
  i, 1.1, 103, -10, /, /, -0.1
O=C(O)CCN=Cc1c(O)c2ccccc2oc1=O
  i, 0.92, 100, -4, /, /, /
CCN(N=Nc1cccc([N+](=O)[O-])c1)c1cccc([N+](=O)[O-])c1
  i, 0.7, 101, -7, -16, 120, -1.5
S=C(NN=C1CCN(Cc2ccccc2)CC1)NC1CCCCC1
  i, 0.92, 99, 1, 8, 168, /
COc1ccc(NC(=O)CSc2[nH]c(=O)cc(C)c2C#N)cc1OC
  i, 1.1, 101, -6, -4, 90, -1.1
Cc1ccc(C2=CC(C)(c3ccc(C)cc3)Nc3nc(C(F)(F)F)nn32)cc1 (stereo not drawn)
  i, 1.2, 101, 5, /, /, 1.6
Cc1cccc(Oc2ncnc(N)c2[N+](=O)[O-])c1C
  /, /, 106, -2, /, /, -0.4
CCOC(=O)C1=C(CSc2nc(-c3ccncc3)ccc2C#N)OC(N)=C(C#N)C1c1ccc(OC)cc1 (stereo not drawn)
  i, 1.2, 97, -5, 0, 95, -2.1
CCC(=O)NCCc1nc2ccccc2n1Cc1ccccc1
  i, 0.83, 95, 3, 69, 149, -2.2
CCOc1cc2oc(=O)c3c(c2cc1Cl)CCC3
  i, 1, 115, -16, -29, 122, 1.0
